# PrP UTR inh: inhibition of PrP 5' UTR reporter expression; inhibition, % (concentration not given with the values); AID 488862, 2010; 0.35% of 340,000 active; cell-based PrP 5' UTR mRNA reporter, plate reader;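 active means every replicate at 50% or more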;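 further: 0 = median of the neutral control wells; tested in H4 reporter cells; numbers are from one replicate; inactives centre near -14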
# Autofluor counter: counter-screen for toxin protease inhibitors: compound fluorescence; compound autofluorescence counterscreen, microsphere flow cytometry; stronger effect = higher value; fluorescence intensity (test concentration not listed); 3.1% of 360,000 active; AID 624483;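 active means at least 3 SD above the mean of all compounds, about 16000 in these data; inconclusive means too few beads counted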;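 further: 100 nL of 1 mM stock went into each well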
# ugtP null kill: growth inhibition of ugtP-null S. aureus, primary screen, RN4220 ugtP deletion, OD600. 16 h; some inactives read as strong as hits. 0.54% of 330,000 active. growth inhibition, % (no concentration beside the values);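 active means z-score under -3 and OD600 up to 0.15 on both plates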;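 further: plate controls were untreated wells for no effect and antibiotic for full effect; wells of about 80 µL received 100 nL stock; the first replicate is given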
# BJeLR viability: MLPCN primary cell-based screen for lethality selective to Ras in HRASV12 cells; inhibition, % (test concentration not listed); 0.17% of 300,000 active; AID 1554, 2009; BJeLR (HRASV12) viability, CellTiter-Glo ATP luminescence, 48 h; reference of the scale not given here;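 active means replicate mean above 50%; inconclusive means above 50% but judged a plate artefact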;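 further: 50 nL library stock added to about 25 µL; numbers are from one replicate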
# Sa RN4220 lethal: growth inhibition of S. aureus RN4220, primary screen, OD600 | 16 h | inhibition, % (concentration not given with the values) | 0.33% of 330,000 active;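 active means z-score of -3 or lower and OD600 up to 0.18 on both plates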;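 further: plate controls were untreated cells for no effect and reference antibiotic for full effect; stock transfer was 100 nL into about 80 µL; one replicate is shown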
# Mtb hypoxia inh: PubChem AID 1159583; 0.1% of 300,000 active; fluorescence inhibition, % (no concentration beside the values); M. tuberculosis hypoxia-regulated fluorescent reporter, fluorescence;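 active means 35 to 45% if threefold the growth effect, above 45% if 1.5-fold the growth effect; inactive means the rest, general growth blockers included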;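 further: wells of about 50 µL received 100 nL stock; 0% = vehicle wells and 100% = reference inhibitor wells; whole bacteria with a GFP reporter of the hypoxia response; strong numbers were not always called active; many hits fall short of the cut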
# Mtb hypoxia inh growth: recorded beside Mtb hypoxia inh, whose call it bears; growth inhibition, %; measured here: M. tuberculosis growth (absorbance);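 0% = vehicle and 100% = reference antibiotic; read after six days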
# An asterisk follows results filed as active; ? = inconclusive; . = no result given. Not a hit list. Share with any hit: about 3.9%.
SMILES | PrP UTR inh | Autofluor counter | ugtP null kill | BJeLR viability | Sa RN4220 lethal | Mtb hypoxia inh | Mtb hypoxia inh growth
C=CCN(c1ccc(C(=O)N(CC)CC)cc1)S(C)(=O)=O | -7 | 6698 | -2 | 2 | 2.7 | . | .
COc1ccc(CCN2C(=NC(=O)C(C)C)SC3CS(=O)(=O)CC32)cc1 (stereo not drawn) | -20 | 3897 | 4 | -1 | 2.4 | 13 | 1
COc1ccccc1CNC(=O)C(CCSC)NC(=O)C1CCC(C)CC1 (stereo not drawn) | -10 | 8738 | 7 | 1 | 1.9 | 8 | 13
O=C(O)/C=C/C(=O)c1ccc2c(c1)NC(=O)CO2 | -11 | 2818 | 1 | 10 | 1.3 | -9 | -3
CC(C)C[C@@H](CN=[N+]=[N-])N1CCN(C)CCC1=O | 0 | 3996 | . | 1 | . | . | .
O=C(Nc1ccc(O)cc1)C1CCCO1 (stereo not drawn) | . | 8036 | 0 | 2 | 6.9 | 10 | 9
COc1ccccc1-c1c(-c2ccc(O)cc2O)n[nH]c1C(F)(F)F | -7 | 4282 | 0 | -3 | 32 | 7 | 2
CCOc1cc(/C=N/NC(=O)Cn2nc([N+](=O)[O-])cc2C)cc(Br)c1OCc1ccccc1F | -21 | 8596 | . | -18 | . | . | .
Cc1ccc(-c2ccc(SCC(=O)NC3CCCC3)nn2)cc1 | -16 | 4164 | -2 | -9 | -2.0 | 0 | -2
O=C(COc1ccc(Cl)cc1)N(Cc1ccccc1)c1nc(-c2ccccc2)cs1 | -34 | 5339 | 13 | -4 | 4.1 | 3 | 0
O=C(NC(=O)N1CCCCC1)c1ccccc1 | -5 | 4711 | 12 | 2 | 11 | 13 | 3
O=C(Cc1ccccc1)N/N=C/c1cccs1 | -13 | 2370 | . | 9 | . | . | .
O=C(CN1CCN(c2ccc(O)cc2)CC1)Nc1cc([N+](=O)[O-])ccc1Cl | -8 | 1873 | -2 | -3 | 4.3 | -3 | 7
COc1ccc(OCc2cc(C(=O)NCCc3ccccc3)no2)c(Cl)c1 | -13 | 4870 | 10 | 13 | 1.7 | 6 | 3
COc1ccccc1N(C(=O)c1cncc(Br)c1)c1nc(-c2ccc(C)cc2)cs1 | -41 | 2285 | 27 | 13 | -6.5 | 2 | 2
c1coc(-c2nnc(NC3=NCCC3)o2)c1 | -48 | 3272 | -4 | 1 | -0.7 | . | .
N#CC(C#N)=C(Nc1ccc(F)cc1)SCc1cccc(Br)c1 | 8 | 2247 | 96* | 37 | 100* | 13 | 9
COc1ccccc1Nc1nnc(SCC2CCCCO2)s1 (stereo not drawn) | -44 | 4346 | 5 | 10 | 1.3 | -4 | 6
CNC(=O)c1c(NC(=O)c2ccc(N3C(=O)CCC3=O)cc2)sc2c1CCC(C)C2 (stereo not drawn) | -12 | 7110 | -8 | -3 | -2.4 | 4 | 5
CCN(C(=O)c1ccccc1)c1ccc([N+](=O)[O-])cc1 | -14 | 8149 | 3 | -2 | 9.4 | 3 | 3

# The closing 2 records of the section above lead into the next:
SMILES | PrP UTR inh | Autofluor counter | ugtP null kill | BJeLR viability | Sa RN4220 lethal | Mtb hypoxia inh | Mtb hypoxia inh growth
CNC(=O)c1c(NC(=O)c2ccc(N3C(=O)CCC3=O)cc2)sc2c1CCC(C)C2 (stereo not drawn) | -12 | 7110 | -8 | -3 | -2.4 | 4 | 5
CCN(C(=O)c1ccccc1)c1ccc([N+](=O)[O-])cc1 | -14 | 8149 | 3 | -2 | 9.4 | 3 | 3
CCC(=O)Nc1sc2c(c1C#N)CCC2 | -20 | 4056 | 7 | 10 | 9.0 | 14 | 5
COc1ccc(/C(O)=C2/C(=O)C(=O)N(CCCN(C)C)C2c2cccc(Cl)c2)cc1OC (stereo not drawn) | -16 | 2534 | 3 | -23 | 6.2 | 4 | -2
O=C(CN1CCCN(S(=O)(=O)c2ccc(Br)s2)CC1)Nc1ccc(Cl)cc1 | 7 | 8264 | -10 | 4 | 3.5 | 8 | 2
COc1cc(/C=N/NC(=O)c2cncc(Br)c2)cc([N+](=O)[O-])c1O | -25 | 3339 | . | -5 | . | . | .
CN=C(Nc1cc(C)nn1CCC#N)c1ccccc1F | -13 | 11164 | 9 | -19 | 1.3 | 13 | 3
Cc1nc2scc(-c3cccs3)c2c(=O)n1-n1cccc1 | -14 | . | 1 | -3 | -1.1 | 7 | 14
O=S(=O)(c1ccc2nc(-c3ccccc3)[nH]c2c1)N1CCN(c2cccc(Cl)c2)CC1 | -4 | 2160 | -36 | -2 | -4.9 | -8 | 2
CCOC(=O)N1CCN(C(=O)CCS(=O)(=O)c2ccc3c(c2)CCN3C(=O)CC)CC1 | 6 | 5453 | -4 | -1 | 0.3 | 2 | 11
COc1cc(OC)c2c(c1)C(=O)c1cc(OC)cc(OC)c1C2=O | -7 | 3231 | -5 | -2 | 4.1 | -2 | 8
Cc1cccc2cc(CN(Cc3ccco3)C(c3nnnn3CCc3ccccc3)C(C)C)c(=O)[nH]c12 (stereo not drawn) | -14 | 4991 | -24 | -3 | 2.7 | . | .
Cc1ccc(-c2c(C(=O)N/N=C/c3ccc4c(c3)OCO4)nnn2-c2nonc2N)cc1 | -12 | 4930 | . | -7 | . | . | .
COc1cccc(NC2C=CS(=O)(=O)C2)c1 (stereo not drawn) | -12 | 5477 | -3 | 5 | -0.6 | . | .
COc1ccc(CNC(=O)Cn2cc(C(F)(F)F)ccc2=O)cc1 | -37 | 2572 | 5 | -6 | -0.4 | 6 | -1
Cc1ccc(NC(=O)CCCCCN2C(=O)[C@@H]3Cc4ccccc4CN3C2=O)c(Cl)c1 | -9 | 4559 | 2 | 7 | 1.7 | 4 | 1
CC(=O)Nc1ccc(NC(=O)c2cccc(Oc3ccccc3)c2)cc1 | -16 | 5447 | 6 | -13 | 2.7 | 3 | 6
COC(=O)c1cn(NC(=O)Cn2nc([N+](=O)[O-])c(Br)c2C)c(=O)c2ccccc12 | -17 | 3376 | 5 | 5 | 11 | 11 | 7
Cc1ccc(C)c(NC(=O)CSc2ncnc3nc[nH]c23)c1 | -28 | 7382 | 4 | -3 | 3.3 | 16 | 3
CCC1(C(=O)OC)NC(c2ccco2)C2C(=O)N(c3ccc(F)cc3)C(=O)C21 (stereo not drawn) | -26 | 4600 | 3 | 4 | 3.1 | 11 | -4
CCN(C(=O)CSc1ccc(S(=O)(=O)N2CCOCC2)cn1)c1ccccc1 | -25 | ? | 3 | . | 1.3 | 4 | 11
COc1cccc(CN2CC(C(=O)NCCc3ccccc3C(F)(F)F)CCC2=O)c1 (stereo not drawn) | -15 | 5556 | 10 | -3 | -1.7 | 4 | -2

# Individual results from above:
# PrP UTR inh with `CCN(C(=O)CSc1ccc(S(=O)(=O)N2CCOCC2)cn1)c1ccccc1` is entered as -25
# BJeLR viability with `Cc1ccc(C)c(NC(=O)CSc2ncnc3nc[nH]c23)c1` is entered as -3
# Mtb hypoxia inh with `CCC1(C(=O)OC)NC(c2ccco2)C2C(=O)N(c3ccc(F)cc3)C(=O)C21` (stereo not drawn) is entered as 11
# Mtb hypoxia inh growth with `CC(=O)Nc1ccc(NC(=O)c2cccc(Oc3ccccc3)c2)cc1` is entered as 6
# Sa RN4220 lethal with `COc1ccc(CNC(=O)Cn2cc(C(F)(F)F)ccc2=O)cc1` is entered as -0.4

# (more compounds)
SMILES | PrP UTR inh | Autofluor counter | ugtP null kill | BJeLR viability | Sa RN4220 lethal | Mtb hypoxia inh | Mtb hypoxia inh growth
Clc1ccc(-c2nc3ccccc3[nH]2)cn1 | -33 | 5668 | -5 | 4 | 1.4 | 17 | 3
Cc1ccc2nc(C)n(-c3ccc(F)cc3)c(=O)c2c1 | -22 | 3216 | 7 | 5 | 0.7 | 18 | 7
O=C(CNCc1cccc(Cl)c1)N1CCc2ccccc2C1 | -27 | 4140 | 1 | -8 | 4.0 | 8 | -7
Cc1cc(C(=O)N/N=C/c2cn(C)nc2C)c2ccccc2n1 | -2 | 5334 | . | -12 | . | . | .
O=C(Cn1ncn2c(cc3ccccc32)c1=O)NCc1ccco1 | -18 | 9268 | -8 | -2 | 0.2 | 0 | 5
O=C(Cn1cnc([N+](=O)[O-])c1)c1ccc(F)cc1 | -1 | 4231 | 3 | 5 | 1.9 | 2 | 8
Cc1cc(C)n(-c2nc3nonc3nc2Nc2cccc(C)c2C)n1 | -3 | 2716 | 4 | -13 | 7.0 | 5 | 8
Cc1nc2sccn2c(=O)c1CCN1CCC(=C(c2ccc(F)cc2)c2ccc(F)cc2)CC1 | -9 | 5892 | -7 | -9 | -0.7 | -2 | 10
CCN(CC)S(=O)(=O)c1ccc(OC)c(N)c1 | -19 | 4540 | 10 | 0 | 4.2 | 11 | -2
O=C(CCN1C(=O)C2C3C=CC(C3)C2C1=O)N1CC(=O)N(CCc2ccccc2)C(=O)C1 (stereo not drawn) | -8 | 2760 | 0 | . | 5.5 | . | .
COc1ccccc1NC(=O)CN1CCN(c2ccccc2F)CC1 | -3 | 2226 | 0 | 10 | 7.1 | . | .
Cc1ccccc1-c1nc(CS(=O)(=O)CC(=O)N2CCc3ccccc32)c(C)o1 | -20 | 5607 | -3 | -1 | -14 | 9 | 10
CCOc1ccccc1C(=O)Nc1nnc(SCC(=O)N2CCOCC2)s1 | -3 | 4400 | 3 | 1 | 8.6 | 11 | 11
Cc1nc(SCC(=O)NCC2CCCO2)c2cc(-c3ccccc3)sc2n1 (stereo not drawn) | -8 | 4297 | -5 | . | 5.2 | 16 | 6
CN(C)c1ccc(C(=S)N2CCN(C(=S)Nc3ccccc3)CC2)cc1 | -4 | 5131 | 3 | 0 | 2.5 | 5 | 4
CCCC(=O)Nc1nc2c(OC)ccc(OC)c2s1 | -19 | 6074 | -9 | 4 | -15 | 10 | 9
CCOC(=O)N1CCC(Nc2cccc(SC)c2)CC1 | 0 | 9426 | -4 | 3 | -0.2 | 7 | 11
CCN(CC(=O)Nc1ccc2c(c1)OCCO2)C(=O)C1CCCCC1 | -5 | 4013 | -1 | 8 | 2.9 | . | .
O=C(c1cnn2c1NC(c1ccco1)CC2C(F)(F)F)N1CCN(c2cccc(Cl)c2)CC1 (stereo not drawn) | -29 | 4778 | -22 | 2 | -3.3 | . | .
CC1C2C[C@@]34COC(=O)C3=CC=CC4[C@@]13CC(c1ccoc1)OC3O2 (stereo partly drawn) | . | . | -1 | . | 6.4 | 1 | 9

# Complete entries, quoted from the list:
# Profile of COc1ccccc1NC(=O)CN1CCN(c2ccccc2F)CC1 = PrP UTR inh: -3; Autofluor counter: 2226; ugtP null kill: 0; BJeLR viability: 10; Sa RN4220 lethal: 7.1; Mtb hypoxia inh: .; Mtb hypoxia inh growth: .
# Profile of CN(C)c1ccc(C(=S)N2CCN(C(=S)Nc3ccccc3)CC2)cc1 = PrP UTR inh: -4; Autofluor counter: 5131; ugtP null kill: 3; BJeLR viability: 0; Sa RN4220 lethal: 2.5; Mtb hypoxia inh: 5; Mtb hypoxia inh growth: 4

# (more compounds)
SMILES | PrP UTR inh | Autofluor counter | ugtP null kill | BJeLR viability | Sa RN4220 lethal | Mtb hypoxia inh | Mtb hypoxia inh growth
Oc1c(/C=N/c2ncn[nH]2)ccc2ccccc12 | -35 | 5097 | . | 1 | . | . | .
O=C1CCCN1c1ccc(Br)cc1 | -17 | 2522 | -4 | -11 | -6.0 | 16 | 12
Cc1cc2c(cc(C(=O)N3CCC(C(=O)N4CCCC4)CC3)n2Cc2c(F)cccc2Cl)o1 | 0 | 5730 | -1 | 13 | -1.6 | 2 | 11
O=[N+]([O-])c1ccc(/C=N/n2c(-c3ccccc3)n[nH]c2=S)cc1 | -21 | 4166 | . | -3 | . | . | .
Cc1ccc(NC(=O)CN2C(=O)CNC2=O)cc1 | -8 | 4382 | 1 | 5 | 4.9 | 5 | -12
CNC(=O)CSc1nnc(-c2ccncc2)n1Cc1ccccc1 | -18 | 16183* | 4 | 17 | 4.3 | 13 | -3
O=C(/C=C/NCc1cccnc1)C(F)(F)C(F)(F)F | -6 | 4226 | -4 | 5 | 0.1 | 0 | 15
CCOc1ccc(-c2c(C(=O)NN=Cc3ccsc3)nnn2-c2nonc2N)cc1 | . | . | -1 | . | 1.1 | 6 | 8
